HPGD inh – qHTS Assay for Inhibitors of HPGD (15-Hydroxyprostaglandin Dehydrogenase) | purified HPGD, NADH fluorescence kinetic, PGE2 substrate | 15-hydroxyprostaglandin dehydrogenase [NAD(+)] (Homo sapiens), P15428 | Potency, µM, without a hit: at the top dose activity change, negative = inhibition, most hits filed as inhibitors | 4.3% of 150,000 active; active = well fitted inhibition curve with a large enough effect (not every such curve was filed as active); inconclusive = small, poorly fitted or top-dose-only effect, or another doubt; inactive = no such curve, though single readings can be large or run the other way;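 note: top concentration of the series not given in the record; plate controls included wells without enzyme; inactives centre near -10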
Target sequence (P15428 whole entry, looked up): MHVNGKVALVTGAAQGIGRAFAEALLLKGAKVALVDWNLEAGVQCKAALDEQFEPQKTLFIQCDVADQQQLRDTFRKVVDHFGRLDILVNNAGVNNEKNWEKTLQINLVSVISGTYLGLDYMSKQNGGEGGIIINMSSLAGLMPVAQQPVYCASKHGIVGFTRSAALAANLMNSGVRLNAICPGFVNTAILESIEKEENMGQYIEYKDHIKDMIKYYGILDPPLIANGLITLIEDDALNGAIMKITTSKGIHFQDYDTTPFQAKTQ
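20 nM HPGD preincubated 15 min at room temperature with compound in 50 mM Tris-HCl pH 8, 0.01% Tween 20. Started with 1 mM NAD+ and 30 uM prostaglandin E2; NADH fluorescence (360/450 nm) read 5 times over 30-s intervals, last minus first.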
Active calls of the source: *; u = inconclusive. % is set by controls: 0 for no effect and ±100 for the full control effect; potency is the fitted concentration of half-maximal effect.

SMILES | HPGD inh
COC(=O)C1=C(C)NC(=O)CC1c1cccc(OC)c1OC (stereo unspecified) | -2%
CC(C)C(=O)NNc1ccccc1 | -6%
Cc1ccc(C(=O)Cn2nnc3ccccc32)cc1 | -9%
CN(CC(=O)NCc1cccs1)S(=O)(=O)c1cccc2nsnc12 | -8%
COc1ccc(CNC(=O)Cn2nc(C(F)(F)F)c3c2CCC3)cc1 | -9%
CCSc1ncnc2c(C#N)c3n(c12)CCCCC3 | -25%
COc1ccccc1N1CCN(CC(O)COc2ccc3c(c2)CCC3)CC1 (stereo unspecified) | -10%
COc1cc(NC(=O)c2ccc3c(c2)OCO3)ccc1NC(=O)C(C)C | -3%
O=C1c2ccccc2C(=O)N1CN(C(=O)COc1ccc(Cl)cc1Cl)c1cccc(F)c1 | -5%
Cc1ccc(C)c([C@@H]2NC(=O)c3ccccc3N2)c1 | u
O=C(NC1CC2CCCC(C1)N2Cc1ccco1)NC12CC3CC(CC(C3)C1)C2 (stereo unspecified) | -7%
COc1ccc(NC(=O)COc2ccc(N(C)S(=O)(=O)c3ccc(C)cc3)cc2)cc1 | -26%
COc1ccc2c(c1)C(=NNC(=O)c1ccccn1)c1cc(OC)ccc1-2 | -18%
Cc1ccc2nc(/C(C#N)=C\c3cc(C)n(-c4cccc([N+](=O)[O-])c4)c3C)[nH]c2c1 | -5%
CCOC(=O)CSC1=C(C#N)C(c2ccc3c(c2)OCO3)CC(=O)N1 (stereo unspecified) | -12%
COCCN1CN=C(Nc2nc3ccccc3s2)NC1 | -8%
O=C(C1CCCCN1S(=O)(=O)c1ccccc1)N1CCN(Cc2ccccc2)CC1 (stereo unspecified) | -8%
CCn1c(SCC(=O)c2ccccc2)nnc1-c1ccoc1C | -15%
CC(C)Cc1nc2oc3c(NCCCN4CCOCC4)ncnc3c2c2c1CCC2 | -23%
CC1=C(C(N)=O)C(c2cccc(O)c2)n2nc(CCCO)nc2N1 (stereo unspecified) | -8%
COc1ccccc1C1N(c2ccc(F)cc2)C(=O)C2CCCN21 (stereo unspecified) | -2%
COc1cccc(-c2nc3ccccc3c(=O)n2NC(=O)c2cccnc2Cl)c1 | 0%
COc1ccc(C(=O)N2CC3(C)CC2CC(C)(C)C3)cc1OC (stereo unspecified) | 1%
Cc1cc(NC(=O)c2ccc(Cl)cc2)c(C(C)C)cc1O | -2%
CCCN1Cc2cccc(C(=O)NCc3cccs3)c2C1=O | -3%
CCC(=O)Nc1ccc(C(=O)N/N=C/c2ccccc2[N+](=O)[O-])cc1 | -20%
O=C(Cn1c(=O)n(Cc2ccco2)c(=O)c2c3c(sc21)CCCCC3)c1ccccc1 | -17%
COc1ccc(/C=C/C(=O)Nc2cc(C)nn2-c2nc3ccccc3n2Cc2cccc([N+](=O)[O-])c2)cc1 | -9%
CCC(=O)n1nc(-c2ccc(Cl)cc2)nc1SC | -15%
COC(=O)c1cscc1NC(C)=O | -9%
CC(C)(O)[C@@H]1CCC[N+]2(C)CCCC[C@H]12 (stereo partly specified) | -4%
CC(=O)N=c1sc2cc(C)ccc2n1C | -12%
Cc1ccccc1-c1nc2ccccc2[nH]1 | u
CCCCn1c(CNC(=O)Cc2ccccc2)nc2ccccc21 | -15%
CC(C)OC(=O)c1cccnc1SCC(=O)N(C)c1ccccc1 | -11%
Cc1nccc(-c2ccc(-n3cnc4ccccc43)cc2)n1 | -7%
Cc1ccc(CC(=O)OCC(=O)NC2CCCC(C)C2C)cc1C (stereo unspecified) | -7%
COc1cccc2c1[C@H](CO)N1[C@H](C#N)[C@@H]3C[C@H](C(=O)O)[C@@H]([C@@H]1C2)N3C | -2%
Cc1ccc(CCNC(=O)C2CCN(S(=O)(=O)N3CCCC3)CC2)cc1 | -7%
CCn1cc(C2=NC(c3ccccc3)CO2)c2ccccc21 (stereo unspecified) | -13%
CCOc1ccc2nc(NC3=NC(c4ccc(OC)cc4)CC(=O)N3)nc(C)c2c1 (stereo unspecified) | u
Cc1ccc(CSCCNC(=O)CSc2ccccc2)cc1 | u
S=C(Nc1ccccc1)N1CCN(C2CCCCC2)CC1 | 3%
CCOc1ccc(NC(=O)CN2CCN(CC(=O)Nc3ccc(C(=O)OC)cc3)CC2)cc1 | -13%
Cc1cc(Nc2cccc(C)c2C)n2ncnc2n1 | -7%
CCCCCCCCC1CO1 (stereo unspecified) | -2%
COc1ccccc1N/C(=N/S(=O)(=O)c1ccc(Cl)cc1)c1ccccc1 | -7%
COc1ccc(-c2nnc(SCC(=O)Nc3ccc4c(c3)OCCO4)n2N)cc1OC | 6%
CCN(C(=O)CN1CCN(c2ccccc2O)CC1)c1c(N)n(Cc2ccccc2)c(=O)[nH]c1=O | -29%
O=C(COC(=O)CNC(=O)c1cccc([N+](=O)[O-])c1)Nc1ccccc1OC(F)F | -21%

Some of these compounds in order of their number in HPGD inh, smallest number first.
compound	HPGD inh
CCCCn1c(CNC(=O)Cc2ccccc2)nc2ccccc21	-15%
CCOc1ccc(NC(=O)CN2CCN(CC(=O)Nc3ccc(C(=O)OC)cc3)CC2)cc1	-13%
COCCN1CN=C(Nc2nc3ccccc3s2)NC1	-8%

The list goes on:
SMILES | HPGD inh
O=C(CS(=O)(=O)c1cn(Cc2cccc(F)c2)c2ccccc12)N1CCOCC1 | -9%
O=C(NC(NC(=S)Nc1ccc(Cl)cc1)C(Cl)(Cl)Cl)c1ccco1 (stereo unspecified) | -10%
COc1cc(/C=C/C(=O)OCC(=O)N2CCC(Cc3ccccc3)CC2)ccc1O | u
CCC(CC)C(=O)N1CCCC(c2nc(-c3cccs3)no2)C1 (stereo unspecified) | -5%
Cc1cccc(-n2nnc(C(=O)NCc3ccco3)c2N)c1 | -12%
COc1ccc2cc(C(c3nnnn3CCc3ccccc3)N3CCC(O)CC3)c(=O)[nH]c2c1 (stereo unspecified) | -15%
NS(=O)(=O)c1cccnc1Nc1cccc(Cl)c1 | u
O=c1[nH]c2cc(Cl)ccc2c(O)c1-c1ccc(Oc2ccccc2)cc1 | -9%
COc1ccc(-c2cc(C(F)(F)F)nc(SCCC(=O)N3CCN4CCCC4C3)n2)cc1 (stereo unspecified) | -16%
CCOc1ccc(NC(=S)NCCCN2CCN(C3CCCCC3)CC2)cc1 | -11%
CCOC(=O)c1nnn(-c2nc(OC)nc(N3CCCCC3)n2)c1-c1ccccc1 | -7%
CCC(C)CCCCC(=O)NC(CCN)C(=O)NC(C(=O)NC(CCN)C(=O)NC1CCNC(=O)C(C(C)O)NC(=O)C(CCN)NC(=O)C(CCN)NC(=O)C(CC(C)C)NC(=O)C(Cc2ccccc2)NC(=O)C(CCN)NC1=O)C(C)O (stereo unspecified) | -2%
O=[N+]([O-])c1cccc(-c2cc3cccc[n+]3cc2-c2cccc([N+](=O)[O-])c2)c1 | 5%
O=C(CSc1nc2ccccc2c(=O)[nH]1)c1cccs1 | 13µM*
COc1ccccc1[C@@H]1C(c2cccc(C)c2)=NN(c2ccc(Br)cc2)[C@H]1C(=O)N1CCOC1=O | u
Cc1sccc1C1C(C#N)=C(N)SC(N)=C1C#N | -16%
COc1ccccc1C1C(C(N)=O)=C(C)Nc2ncnn21 (stereo unspecified) | -5%
Cc1cccc2cc(C(c3nnnn3Cc3ccc4c(c3)OCO4)N3CCCC3)c(=O)[nH]c12 (stereo unspecified) | -25%
CCn1c(CNc2ccccc2Cl)nnc1SCCN1CCCCC1 | 1%
O=C(COC(=O)C1CCC1)Nc1ccccc1Sc1ccccc1 | -8%
COc1ccc2nc(/N=C/c3c(C)[nH]n(-c4ccc(C)cc4)c3=O)sc2c1 | -27%
O=C(CSCc1ccc(Cl)cc1)N1CCOCC1 | -2%
Cc1cc([N+](=O)[O-])cc2c1-c1ncccc1C2=Nc1ccccc1 | -10%
O=C(O)Cn1cc(C(=O)c2ccco2)c2ccccc21 | -25%
COc1ccc(CCNC(=O)c2cnn3ccccc23)c(OC)c1OC | -2%
c1ccc(-c2cc(-c3nnc4n3N=C(c3ccc5ccccc5c3)CS4)[nH]n2)cc1 | -13%
Cc1ccc(S(=O)(=O)N2CCN(c3ncnc4c3cnn4-c3ccccc3)CC2)cc1 | -18%
O=C1[C@@H]2Cc3c([nH]c4ccccc34)[C@@H](c3ccccc3)N2C(=O)[C@@H]2Cc3c([nH]c4ccccc34)[C@@H](c3ccccc3)N12 | -12%
COc1cc(N(C(=O)Cc2cccs2)C(C(=O)NC2CCCCC2)c2cccc(OC)c2OC)ccc1-n1cnnn1 (stereo unspecified) | 0%
CCOC(=O)c1cnn(-c2ccccc2)c1-n1cccc1 | -8%
COc1cccc(CNCCSc2nnnn2C)c1OC | -7%
COc1ccc(N(CC(=O)Nc2ccc(S(=O)(=O)N3CCOCC3)cc2)S(=O)(=O)c2ccccc2)cc1 | -7%
O=C(O)C1CCCN1c1ncccn1 (stereo unspecified) | -10%
O=C(Nc1ccc(Cl)cc1)N(CCCN1CCOCC1)Cc1cccs1 | -4%
CCCCC(=O)Nc1ccc2c(c1)nc1n2CCOC1 | -8%
Cc1cc(C)nc(SCc2nnc(SCC(=O)Nc3ccc(Cl)c(C(F)(F)F)c3)o2)n1 | -5%
CC(=O)c1cccc(NC(=O)CN(C2CCCCC2)S(C)(=O)=O)c1 | -11%
Cc1ccc(Sc2ncccc2C(=O)O)cc1 | -10%
CC(C)c1nnc(NC(=O)CSc2ccccc2)s1 | -18%
Cc1ccc(OCc2cn3cccnc3n2)cc1 | u
CCC1S/C(=N\S(=O)(=O)c2cccs2)N(C2CCCCC2)C1=O (stereo unspecified) | -8%
CN(Cc1ccccc1)C(=O)CCCn1c(=O)[nH]c2cc(Cl)ccc2c1=O | 25µM*
Cc1ccc(O)c(CNc2ccccn2)c1 | -22%
Cc1c(NC(=O)C2Cc3ccccc3CN2C(=O)c2ccco2)c(=O)n(-c2ccccc2)n1C (stereo unspecified) | 3%
Cn1c(O)c(C2=c3ccccc3=NC2=O)sc1=Nc1ccc(Cl)cc1 | -17%
CC(C)NC(=O)CSc1nc(N)c(NC(=O)c2ccccc2F)c(=O)[nH]1 | -3%
Cc1ccc(S(=O)(=O)N2CCN(CC(=O)Nc3ccc(N4CCOCC4)cc3)CC2)cc1C | -5%
N/C(Cc1ccc([N+](=O)[O-])cc1)=N\OC(=O)CC1CCCCC1 | -8%
COc1ccccc1Nc1nc(N)nc(CN2CCN(Cc3ccccc3)CC2)n1 | -8%
O=C(Nc1ccccc1C(F)(F)F)c1cc(-c2ccc(O)cc2)on1 | -11%

In another format: 4 of the compounds above.
CCOC(=O)c1cnn(-c2ccccc2)c1-n1cccc1
  HPGD inh = -8%
COc1cccc(CNCCSc2nnnn2C)c1OC
  HPGD inh = -7%
COc1ccc(N(CC(=O)Nc2ccc(S(=O)(=O)N3CCOCC3)cc2)S(=O)(=O)c2ccccc2)cc1
  HPGD inh = -7%
O=C(O)C1CCCN1c1ncccn1 (stereo unspecified)
  HPGD inh = -10%

(more compounds)
SMILES | HPGD inh
O=C(NCc1ccccc1)C(=O)NCC1COc2ccccc2O1 (stereo unspecified) | 0%
COc1ccc(-n2c(C)nc3c(cnn3-c3ccc(Cl)cc3)c2=O)cc1 | u
CN(C)S(=O)(=O)N1CCN(C(=O)c2cccc(Br)c2)CC1 | -2%
CC(C)OCC1CC(CC(=O)NC(=S)Nc2cccc([N+](=O)[O-])c2)C(=O)O1 (stereo unspecified) | -12%
CC1CCc2c(sc3nc(CN4CCN(S(=O)(=O)c5ccccc5[N+](=O)[O-])CC4)[nH]c(=O)c23)C1 (stereo unspecified) | -9%
O=S(=O)(c1ccccc1)c1nc(-c2ccco2)oc1Nc1ccccc1 | u
COc1ccc(-n2c(C)cc(-c3csc(NC(=O)c4ccc(S(=O)(=O)N(C)C)cc4)n3)c2C)cc1 | -4%
C=CCN1C(=Nc2ccccc2)SC/C1=C\C(=O)OC | -7%
CCOC(=O)CCCCC(=O)NC(CO)C(=O)NC (stereo unspecified) | -10%
NNC(=O)c1cccc(O)c1 | 2%
O=C(CSc1nnnn1-c1cccc2c1CCCC2)N1CCOCC1 | u
CS(=O)(=O)N1CCC2(CCN(Cc3ccc(C#N)cc3)CC2)CC1 | -3%
Cc1ccc(/C=C/C(=O)Nc2nnc(SCc3ccc(C#N)cc3)s2)o1 | -14%
CC1(C)CC(=O)C(C(=S)Nc2ccc(F)cc2)=C(NCCN2CCOCC2)C1 | -11%
N#Cc1ccc(Cl)cc1NC(=O)COC(=O)c1ccc2c(c1)OCCO2 | -16%
Cc1ccc(-n2cc[nH]c2=S)cc1C | 22µM*
Cc1cc(=O)oc2cc(OCc3cc4c(cc3Cl)OCO4)ccc12 | u
COc1cc(-c2nc(-c3ccncc3)no2)cc(OC)c1OC | -11%
CCN1C(=O)C(CC(=O)Nc2ccc(OC)cc2)N(Cc2cccs2)C1=S (stereo unspecified) | -9%
Cc1cc(NC(=O)COc2ccccc2)n(-c2ccccc2)n1 | -17%
CCCn1c(-c2ccc(F)cc2)nc2c(NCC3CCN(C)CC3)nc(C)nc21 | u
CCCCOc1ccc(NC(=O)c2cc(F)c(F)cc2Cl)cc1 | -9%

Screens as filed in PubChem.

An excerpt. The share of hits here may be higher or lower than overall.
